# Screens deposited in PubChem BioAssay by Center for Chemical Genomics, University of Michigan.
# HIV TAR-Tat = HIV-1 TAR-Tat binding disruption. HIV-1 TAR RNA, Tat peptide displacement FRET; stronger effect = higher value. z-score (test concentration not listed). 100,000 compounds, 0.6% hits. AID 1259389;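 note: score is relative to mean and SD of negative controls; some compounds called inactive have numbers as strong as hits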
# CDC25B-CDK2 inh = human CDC25B-CDK2/CyclinA binding inhibition. AID 1259370. 94,000 compounds, 0.72% hits. HTRF CDC25B-CDK2/CyclinA binding, anti-His/anti-Flag; stronger effect = higher value. P30305+P24941. z-score (no concentration beside the values);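 note: score is relative to mean and SD of negative controls; strong numbers were not always called active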
# Numbers without * were called inactive; . = no result given; & = joins results of further samples.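 Rule for the calls: active = z-score from 3 up in half or more of its runs; inactive = the rest.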
# The line under a structure holds: HIV TAR-Tat | CDC25B-CDK2 inh
CCc1cccc2c1N[C@@H](c1ccc(C(=O)O)cc1)[C@H]1CC=C[C@@H]21
    . | -0.09
O=C(Nc1nnc2n1CCS2)C1CC(=O)N(c2ccc(F)cc2)C1 (configuration not stated)
    0.87 | .
Cc1cc(C)nc(SCc2nnc(SCC(N)=O)n2C)n1
    1.1 | 0.4
COc1ccc(S(=O)(=O)N2CCCCC2c2nc(-c3ccc(F)cc3)no2)cc1 (configuration not stated)
    0.59 | .
O=C(O)C1CCCN(C(=O)c2cnn(-c3ccccc3)c2-n2cccc2)C1 (configuration not stated)
    1.3 | -0.26
Cc1cc2c3c([nH]c2cc1S(=O)(=O)NCC1CCCO1)CCCC3=O (configuration not stated)
    0.48 | .
CC1=C(c2cccc(Br)c2)S(=O)(=O)N=C1Nc1ccc2c(c1)OCO2
    -1.5 | -1.1
O=C(NCc1nc(-c2ccc3c(c2)nnn3C2CCCC2)no1)c1ccccc1
    2.4 | .
CC(=O)N1c2ccc(S(=O)(=O)N3CCCC3)cc2CC1C(=O)N1CCCCC1 (configuration not stated)
    0.93 | .
Cc1cc(=O)[nH]c2c1c(=O)[nH]n2C1CCOC(C)(C)C1 (configuration not stated)
    . | -2
c1cc2sc3ccsc3c2s1
    . | 0.89
CCOc1cccc2cc3c(=O)n(-c4ccc(Cl)cc4)nc-3oc12
    -0.06 | -1
COc1cccc(Nc2c(Nc3cccc(OC)c3)c(=O)c2=O)c1
    . | -1.7
C=C(C)Cn1c(SCCC)nc2sc3c(c2c1=O)CC(C)(C)OC3
    3 | -2.5
COc1ccc(-c2cn3cc(C)ccc3n2)cc1F
    -0.6 | -2
CCOC(=O)c1c(C)n(C)c2ccc(OCC(O)CNC(C)(C)C)cc12 (configuration not stated)
    0.05 | -0.92
CC(O)CNc1ncnc2c1c(-c1ccccc1)cn2-c1ccc(Cl)cc1 (configuration not stated)
    . | -0.26
COc1ccccc1N1CCN(C(=O)C(C)c2ccc(CC(C)C)cc2)CC1 (configuration not stated)
    . | -1.9
Cc1oc2ncn3nc(-c4ccc(CN5CCCCC5)o4)nc3c2c1C
    0.78 | .
Cc1cc(C)n(-c2nc3c(c(=O)n2CC(=O)NC(C)C)CCCC3)n1
    0.97 | .
Cn1cnc(S(=O)(=O)NC2CCCCC2)c1
    1 | .
CCCCCCNS(=O)(=O)c1ccc(OC)c(OC)c1
    0.67 | -0.85
O=C(Cn1ncc2c([nH]c3ccccc32)c1=O)NCc1ccccn1
    -0.07 | .
CN(C)c1ccc(CNCCCSc2nnnn2C)cc1
    1.9 | -1.8
CCCCN1C(=O)C(c2c(C)[nH]n(-c3ccccc3)c2=O)(C(F)(F)F)C2=C1CC(C)(C)CC2=O (configuration not stated)
    -1.8 | -1.8
Cn1c(=O)c2sccc2n2c(CCCC(=O)NCc3ccco3)nnc12
    0.4 | .
O=C(NCCc1ccccc1)NC(c1ccccc1)c1nnc(-c2ccc(Cl)cc2)o1 (configuration not stated)
    1.2 | .
CN1CCN(CC#CCC(O)(c2ccccc2)C2CCCC2)CC1 (configuration not stated)
    0.88 | -1.6
CN1CCc2cc(Cl)c(O)cc2[C@@H](c2ccccc2)C1
    1.9 | -1.8
COC(=O)c1sc2ccccc2c1NC(=O)CN1C(=O)c2ccccc2C1=O
    . | -0.49
Cc1nc2c3ccccc3nc(N3CCN(c4ccc(F)cc4)CC3)n2n1
    -0.52 | -2.3
COc1ccc(OC)c(NS(=O)(=O)c2cc(-c3csc(C)n3)ccc2C)c1
    1.9 | .
CC(C)(C)C(=O)c1cn(CCOc2ccccc2F)c2ccccc12
    -0.68 | -1.9
COc1c(Br)cc(-c2noc(CSC)n2)cc1Br
    . | -2.5
CC1C(=O)N2CCCc3cc(S(=O)(=O)N(C)c4ccccc4)cc1c32 (configuration not stated)
    1.2 | .
N#Cc1nc(-c2ccccc2)oc1N1CCOCC1
    0.03 | -1.1
CC1(C)CC(=O)C2=C(C1)Nc1ccccc1NC2c1cccc(Oc2ccccc2)c1 (configuration not stated)
    2 | -0.57
O=C(O)CCC(=O)Nc1ncccc1OCc1ccc(Cl)c(Cl)c1
    . | -1.7
O=C(NCc1ccc(S(=O)(=O)N2CCN(C(=O)C3CCCO3)CC2)s1)c1ccccc1 (configuration not stated)
    . | -2.3
CCc1ccc(C(=O)CSc2nc3ccccc3c(=O)[nH]2)cc1
    -0.81 | 0.73
NS(=O)(=O)c1ccc(N=Cc2ccccc2O)cc1
    . | -1.1
C=CCNC(=O)CCc1nc2sc3c(c2c(=O)[nH]1)CCCCC3
    0.47 | .
O=c1c2[nH]c3ccc(Cl)cc3c2ncn1CCCN1CCN(C2CCCCC2)CC1
    0.97 | 0.49
CCOc1cccc(N2C(=O)CC(N3CCN(c4ccccc4O)CC3)C2=O)c1 (configuration not stated)
    -0.4 | -0.69
CCCC(=O)N1CCN(c2cc(N3CCCCC3)nc(C)n2)CC1
    -0.42 | -1.4
CSc1ccc(NC(=O)c2cc3c4c(sc3nc2N)CCC4)cc1
    0.92 | -0.16
Cc1ccc(-c2csc3ncc(C(N)=O)c(=O)n23)cc1
    0.97 | -0.16
O=C(NCCc1ccco1)c1cnc2sc(N3CCOCC3)nn2c1=O
    2.3 | .
O=C(Nc1ccccc1)C1CCN(c2nc3ccsc3c(=O)s2)CC1
    -0.62 | -1.5
CCOC(=O)c1cc(C)n(CC2CCC(C(=O)NCCC3=CCCCC3)CC2)c1C (configuration not stated)
    0.9 | .
COc1ccc(Cl)cc1NC(=O)C(=S)NC1CCCCC1
    . | -0.72
COc1cc(C2C(N3C(=O)c4ccccc4C3=O)C(=O)N2c2cc(C)cc(C)c2)cc(OC)c1OC (configuration not stated)
    . | -1.6
Cc1nc2nc(-c3cccnc3)[nH]n2c(=O)c1C
    1.3 | -0.14
CCSCCOC(=O)C1=C(C)NC2=C(C(=O)CCC2)C1c1coc2ccccc2c1=O (configuration not stated)
    1.9 | -1.2
Cc1ccc2nc(NC(=O)NC3CC(=O)N(c4ccc5c(c4)OCCO5)C3)sc2c1 (configuration not stated)
    2.3 | .
Cc1ccc(S(=O)(=O)NCc2cccn2Cc2cc(C)ccc2C)cc1
    1.4 | .
CC(C)C1Cc2c(sc3nc(SCC(=O)Nc4ccc(Br)cc4)nc(N)c23)CO1 (configuration not stated)
    -2 | -5.7
O=C1CC(C(=O)Nc2ccc3c(c2)OCO3)n2ncnc2N1 (configuration not stated)
    -2.1 | 0.99
O=C(CSc1oc(-c2cccs2)nc1S(=O)(=O)c1ccc(Cl)cc1)NCC1CCCO1 (configuration not stated)
    -1.6 | -3.5
CC(C)NC(=O)c1cc2ccccn2n1
    0.82 | .

# (continued)
# The line under a structure holds: HIV TAR-Tat | CDC25B-CDK2 inh
O=C1C2CC=CCC2C(=O)N1c1cccc(O)c1 (configuration not stated)
    . | -1.1
CCCSc1ncc(Cl)c(C(=O)Nc2c(C)n(C)n(-c3ccccc3)c2=O)n1
    2.1 | -0.8
O=C(/C=C/c1ccccc1)c1ccc(O)cc1
    0.43 | .
CN1C(C)(C)CC(OC(=O)c2ccccc2C(=O)OC2CC(C)(C)N(C)C(C)(C)C2)CC1(C)C
    . | -1.7
O=C(NCc1ccc2c(c1)OCO2)C(=O)NCC(c1ccco1)S(=O)(=O)c1cccs1 (configuration not stated)
    2 | .
CCOC(=O)c1c(C)oc2nc(C)nc(Nc3ccc(OC)c(Cl)c3)c12
    -0.43 | .
CCOC(=O)c1cc(S(=O)(=O)Nc2ccc3c(c2)OCCO3)[nH]n1
    1.3 | .
CC(C)c1ccc(S(=O)(=O)Nc2cccc(-c3nnc(-c4ccccc4)o3)c2)cc1
    -2.2 | .
CC(=O)ON(C(C)=O)c1nc(-c2ccccc2)cc(-c2ccc(F)cc2)n1
    . | 0.98
Cc1cc(CNC(=O)Nc2ccc(Cl)cc2)c(C)n1-c1ccc(F)cc1
    0.13 | .
Cc1cc(NC(=O)NC(c2ccccc2)c2nnc(-c3ccccc3)o2)ccc1Br (configuration not stated)
    1.5 | .
Cc1ccc(-c2cc(Nc3ccccc3)nc(C)n2)cc1
    -0.39 | 0.02
COc1cccc(-n2nnc(-c3nc(-c4cccs4)no3)c2N)c1
    0.06 | .
CC1Cc2cc(S(=O)(=O)N3CCCCC3)ccc2N1C(=O)C1CC1 (configuration not stated)
    1.5 | .
O=C1N=C(c2ccccc2)C(C(=O)Nc2ccc(Br)cc2)=C1O
    . | 1.9
O=C(Nc1ccc(N=Cc2ccccc2O)cc1)c1ccccc1O
    . | -1.9
Cc1nnc2c(Oc3cccc4ccccc34)nc3ccccc3n12
    0.98 | -0.55
CN(Cc1ccco1)C(=O)c1ccc(CNc2c(N3CCCCC3)c(=O)c2=O)cc1
    . | -2.7
COc1cccc2c(=O)c(NC(=O)NCCCO)c[nH]c12
    1.8 | -0.64
CCOc1cccc(C2Nc3c(C)cccc3-c3cc(C)nn32)c1O (configuration not stated)
    2 | -1.3
Cc1cc(S(=O)(=O)Nc2ccccc2C(=O)NCC2CC2)c(C)cc1Cl
    . | -0.03
Cc1cccn2c(=O)c(C(=O)NCc3ccncc3)c(O)nc12
    2.2 | -1.6
O=C(NCC(c1cccs1)S(=O)(=O)c1cccs1)c1ccc(F)c(F)c1 (configuration not stated)
    1.3 | .
COc1ccc(NC(c2nnc(-c3ccccc3)o2)c2ccccc2F)cc1OC (configuration not stated)
    -0.61 | .
CCCc1cc2c(c(N)n1)c(=O)oc1ccccc12
    -0.12 | 0.26
O=[N+]([O-])c1cc(Br)cc(/C=N/Nc2nc3ccccc3[nH]2)c1O
    . | -4.1
CSc1ccc(CNc2nc3nc(C)c(Cl)c(=O)n3[nH]2)cc1
    1.3 | -1.9
NC1=NC(c2ccco2)n2c(nc3ccccc32)N1 (configuration not stated)
    -1.4 | 0
COCCCNC(=O)c1c(O)nc2c(C)cccn2c1=O
    -0.78 | -1.1
O=S(=O)(c1ccc(F)cc1)N(Cc1ccccc1)c1ccccn1
    1.6 | 1.6
NC(=O)c1c(NC(=O)c2ccc(Cl)cc2)sc2c1CCCC2
    1 | -1.7
O=C1O[C@@H]2C[C@H]3C[C@@H]2[C@@H]1[C@H]3C(=O)N1CCCCC1
    -0.48 | -1.6
Fc1ccc(NCc2ccc3c(c2)OCO3)cc1
    1.4 | -1.6
Cn1c(=O)c(=O)n(CC(=O)NC2CC2)c2ccccc21
    1.1 | .
COc1ccc(Cn2cc3c(-c4ccc(OC)cc4)nnc-3c3cc(OC)ccc32)cc1
    -5.1 | 2.3
C=CCn1c(SCCOc2ccccc2)nc2ccccc21
    -0.65 | -0.34
Cc1ccc2oc(=O)c3cnn(CC(=O)N4CCN(Cc5ccc6c(c5)OCO6)CC4)c3c2c1
    0.32 | -0.53
COc1ccc2nc(SCC(=O)Nc3ncc(Br)s3)[nH]c2c1
    0.43 | -1.1
COC(=O)CN1C(=O)CSc2ccc(S(=O)(=O)N3CCCC(C)C3)cc21 (configuration not stated)
    0 | .
CC(C)CCn1cnc2c(sc3nc4c(cc32)COC(C)(C)C4)c1=O
    . | -2.1

# In a second layout: entries from further up.
mol,HIV TAR-Tat,CDC25B-CDK2 inh
Cc1cccn2c(=O)c(C(=O)NCc3ccncc3)c(O)nc12,2.2,-1.6
O=C(NCC(c1cccs1)S(=O)(=O)c1cccs1)c1ccc(F)c(F)c1 (configuration not stated),1.3,.
COc1ccc(NC(c2nnc(-c3ccccc3)o2)c2ccccc2F)cc1OC (configuration not stated),-0.61,.

# The results go on.
# The line under a structure holds: HIV TAR-Tat | CDC25B-CDK2 inh
CCN(CC)CCNc1cc(-c2ccccc2)ncn1
    1.1 | 0.19
COc1cc(NC(=O)C2CCN(S(=O)(=O)c3ccc4[nH]c(=O)oc4c3)CC2)cc(OC)c1
    -0.41 | .
COCCOC(=O)C1=C(C)NC2=C(C(=O)C(C(=O)OC)C(C)C2)C1c1cccc(Br)c1 (configuration not stated)
    1 | -0.35
CC(C)(C)OC(=O)N[C@@H](Cc1ccccc1)C(=O)NNC(=S)c1ccc2c(c1)OCCO2
    . | -1.4
CN(C)CCN(Cc1ccccc1)c1ccccn1
    -1.2&1.6 | .
O=C1c2cccnc2C(=O)N1Cc1ccc(F)cc1S(=O)(=O)NC1CCCC1
    0.23 | .
C/C(=N\OC(=O)c1ccc(Cl)cc1)c1ccc(F)cc1
    . | -2.5
CCOc1ccc2nc(NC(=O)c3nc(SC)ncc3Cl)sc2c1
    1.7 | 1.1
O=C(c1ccco1)N1c2nc(-c3cccnc3)nn2C2(CCCCC2)[C@@H]2CCCC[C@@H]21
    1.8 | 0.46
c1csc(C2Nc3ccccc3-c3nc4ccccc4n32)c1 (configuration not stated)
    . | -1.9
O/N=C1/CCCc2nonc21
    . | -1.7
O=C1c2cccc(O)c2C(=O)c2c(O)cc(CO)cc21
    6.2* | .
Cc1cccc(OCc2nn3cnnc3s2)c1
    1.9 | -0.75
COc1ccc(-c2nc(C(N)=O)c3[nH]c(=O)n(-c4ccccc4OC)c3n2)c(OC)c1
    1.1 | .
Cc1cc(C(=O)O)c2c(=O)n(C)c(=O)n(C)c2n1
    -0.83 | -0.52
Cc1nc(Nc2ccccc2)sc1C(=O)c1ccc2c(c1)OCCCO2
    . | 4.6
N#Cc1c(Cl)cccc1Oc1ccc(-c2nnco2)cc1
    . | -1.3

# In another format: results already given
mol	HIV TAR-Tat	CDC25B-CDK2 inh
O/N=C1/CCCc2nonc21	.	-1.7
O=C1c2cccc(O)c2C(=O)c2c(O)cc(CO)cc21	6.2*	.
Cc1cccc(OCc2nn3cnnc3s2)c1	1.9	-0.75
COc1ccc(-c2nc(C(N)=O)c3[nH]c(=O)n(-c4ccccc4OC)c3n2)c(OC)c1	1.1	.
